Mtb hypoxia inh = PubChem AID 1159583; M. tuberculosis hypoxia-regulated fluorescent reporter, fluorescence; fluorescence inhibition, % (no concentration beside the values); actives 0.1% (n = 300,000);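 active = 35 to 45% if threefold the growth effect, above 45% if 1.5-fold the growth effect; inactive = the rest, general growth blockers included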;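 also: wells of about 50 µL received 100 nL stock; 0% = vehicle wells and 100% = reference inhibitor wells; whole bacteria with a GFP reporter of the hypoxia response; strong numbers were not always called active; many hits fall short of the cut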
Autofluor counter = flagged as autofluorescent in microsphere protease counterscreen; compound autofluorescence counterscreen, microsphere flow cytometry; hits give high values; fluorescence intensity (concentration not given with the values); actives 3.1% (n = 360,000);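 active = at least 3 SD above the mean of all compounds, about 16000 in these data; inconclusive = too few beads counted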;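 also: 100 nL of 1 mM stock went into each well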
Sa ugtP lethal = growth inhibition of ugtP-null S. aureus, primary screen, RN4220 ugtP deletion, OD600. 16 h; some inactives read as strong as hits. growth inhibition, % (no concentration beside the values). actives 0.54% (n = 330,000). AID 1259309, 2017;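 active = z-score under -3 and OD600 up to 0.15 on both plates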;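 also: plate controls were untreated wells for no effect and antibiotic for full effect; wells of about 80 µL received 100 nL stock; the first replicate is given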
BJeLR lethal = MLPCN primary cell-based screen for lethality selective to Ras in HRASV12 cells | AID 1554, 2009 | actives 0.17% (n = 300,000) | BJeLR (HRASV12) viability, CellTiter-Glo ATP luminescence, 48 h; reference of the scale not given here | inhibition, % (no concentration beside the values);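 active = replicate mean above 50%; inconclusive = above 50% but judged a plate artefact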;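 also: 50 nL library stock added to about 25 µL; numbers are from one replicate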
RN4220 kill = growth inhibition of S. aureus RN4220, primary screen, OD600; inhibition, % (test concentration not listed); 16 h; actives 0.33% (n = 330,000);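 active = z-score of -3 or lower and OD600 up to 0.18 on both plates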;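 also: plate controls were untreated cells for no effect and reference antibiotic for full effect; stock transfer was 100 nL into about 80 µL; one replicate is shown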
PrP UTR inh = inhibition of PrP 5' UTR reporter expression; cell-based PrP 5' UTR mRNA reporter, plate reader; inhibition, % (test concentration not listed); actives 0.35% (n = 340,000); AID 488862, 2010;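 active = every replicate at 50% or more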;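 also: 0 = median of the neutral control wells; tested in H4 reporter cells; numbers are from one replicate; inactives centre near -14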
Mtb hypoxia inh growth = second read-out of Mtb hypoxia inh, no call of its own (marks repeat the call); growth inhibition, %; measured here: M. tuberculosis growth (absorbance);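 0% = vehicle and 100% = reference antibiotic; read after six days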
Numbers without * were called inactive; ? = inconclusive; · = not tested or not shown.

SMILES	Mtb hypoxia inh	Mtb hypoxia inh growth	Autofluor counter	Sa ugtP lethal	BJeLR lethal	RN4220 kill	PrP UTR inh
COc1ccc(/C=C2\C(=N)N3N=C(CC(=O)N4CCCCC4)SC3=NC2=O)cc1	-6	6	6056	-4	-7	7.3	-28
COc1ccc(NC(=O)CS(=O)CC(=O)Nc2cc(Cl)ccc2OC)cc1 (stereo not drawn)	2	-4	?	1	1	1.7	-13
CCCC(=O)Nc1ccc(C(=O)/C=C/c2ccc(SC)cc2)cc1	4	10	2842	-12	7	-10	-24
Cc1ccc(NC(=O)CC2C(=O)NC3CCCCC3N2C(=O)c2ccc(F)cc2)cc1C (stereo not drawn)	·	·	2133	-1	6	3.4	-16
COc1cccc(CN2CCNC(=O)C2CC(=O)NCc2cn3ccc(C)cc3n2)c1OC (stereo not drawn)	16	11	3403	2	-5	5.6	-6
CCNC(=S)NNc1nncc2ccccc12	5	16	4496	16	1	1.9	-28
CCOc1ccc(NC(=S)N2CCCN(Cc3cccc(Cl)c3)C2)cc1	6	-6	·	1	0	-2.7	-14
COc1cc(OC)c(OC)cc1C=Nn1c(C)nc2ccccc2c1=O	3	0	·	5	·	2.0	·
COc1cc(C(=O)N2CCSCC2)ccc1OC1CCN(C(C)=O)CC1	-1	-1	6658	3	3	2.3	-8
CS(=O)(=O)N1CCCC(C(=O)NCCN2CCC(Cc3ccccc3)CC2)C1 (stereo not drawn)	-1	-2	7862	7	11	4.6	-7
CCOC(=O)c1c(-c2ccc(F)cc2)csc1NC(=O)CN1C(=O)NC2(CCCCC2C)C1=O (stereo not drawn)	-2	-10	8887	-21	-6	0.7	-17
COc1ccccc1CNC(=O)CN(c1ccc(C)cc1)S(=O)(=O)c1c(C)n[nH]c1C	·	·	4979	4	4	-3.7	-9
O=C1CCC([N+](=O)[O-])C(c2ccc(Cl)cc2)N1 (stereo not drawn)	9	10	4822	-1	1	-0.2	-17
C=CCc1ccccc1OCC(O)CN1CCN(c2ccc(C)cc2)CC1 (stereo not drawn)	7	0	8844	-5	-1	3.0	0
O=C(CSC(=S)N1CCOCC1)Nc1nccs1	1	1	3817	3	-8	6.5	-14
O=C(NN1C(=O)C2C3CCC(O3)C2C1=O)c1ccco1 (stereo not drawn)	-3	5	2005	7	9	-0.4	-11
O=C(COC(=O)C1COc2ccccc2O1)NC(=O)NC1CCCC1 (stereo not drawn)	16	-21	3316	5	5	11	-22
Cc1cc(/C=C2\SC(=S)NC2=O)c(C)[nH]1	·	·	2944	·	3	·	-26
O=C(CCCOc1ccc(Cl)cc1Cl)NN=Cc1ccco1	-3	5	·	-21	·	3.1	·
Cc1ccccc1OCC(=O)N(CC(C)C)c1c(N)n(CC(C)C)c(=O)[nH]c1=O	1	0	4936	0	0	1.7	-25

The closing three entries of the section before lead into the next.
SMILES	Mtb hypoxia inh	Mtb hypoxia inh growth	Autofluor counter	Sa ugtP lethal	BJeLR lethal	RN4220 kill	PrP UTR inh
Cc1cc(/C=C2\SC(=S)NC2=O)c(C)[nH]1	·	·	2944	·	3	·	-26
O=C(CCCOc1ccc(Cl)cc1Cl)NN=Cc1ccco1	-3	5	·	-21	·	3.1	·
Cc1ccccc1OCC(=O)N(CC(C)C)c1c(N)n(CC(C)C)c(=O)[nH]c1=O	1	0	4936	0	0	1.7	-25
Cc1cccc(N=C2NN=C(c3ccccc3F)CS2)c1C	17	-1	4059	7	1	3.5	-31
CCOc1ccccc1CNC(=O)c1cc2oc3ccccc3c2n1CC	1	6	4203	66	9	4.0	-15
COc1cc([N+](=O)[O-])ccc1NC(=O)NNC(=O)c1sccc1C	5	9	5158	2	1	1.8	-25
Cn1c(C(=O)NCCN2CCOCC2)cc2sccc21	9	5	7678	3	-14	5.6	-10
CCn1cc(C(=O)N[C@@H](CC(C)C)C(=O)NCCCn2ccnc2)c(=O)c2cc3c(cc21)OCO3	3	-1	5204	2	-8	-0.5	-26
COc1cc(/C=C2\SC(=S)N(CC(=O)NC3=NCCS3)C2=O)cc(OC)c1OC	-9	-4	2282	0	0	-0.3	-13
Cc1c(N/C=C(\Cl)C(=O)C(F)(F)F)c(=O)n(-c2ccccc2)n1C	6	-6	4407	29	2	-13	-6
COc1ccc2nc(NNC(=O)c3cc(=O)c4ccccc4o3)sc2c1	·	·	5756	·	-2	·	-6
Cc1ccc(NNC(=O)c2ccno2)cc1C	-5	-4	4274	8	-3	4.8	-12
CSc1ccccc1C(=O)Nc1cccc(C(C)=O)c1	14	6	26701*	10	13	1.2	-22
COC(=O)C[C@H]1c2cc(F)ccc2S(=O)(=O)N1Cc1ccccc1	-8	4	3962	7	12	8.3	0
COc1ccc(NC(=O)CSc2nc(O)c(Cc3ccccc3)c(=O)[nH]2)cc1	1	5	23050*	9	5	9.2	-26
CN(c1cccc(NC(=O)CN(c2ccc(Cl)c(Cl)c2)S(=O)(=O)c2ccccc2)c1)S(C)(=O)=O	16	5	1958	-2	20	5.0	10
Cc1cccc(-c2nc(C#N)c(N3CCC(C)CC3)o2)c1	-5	5	3859	5	5	1.3	·
OC(COC1CCCCC1)CN1CCN(c2ccccc2)CC1 (stereo not drawn)	-2	12	10371	5	·	4.9	-31
CCOc1ccccc1NC(=O)C1CCCCN1S(=O)(=O)c1ccc(F)cc1 (stereo not drawn)	9	7	10899	7	-2	0.8	-27
Cc1ccc(S(=O)(=O)N2CCN(C(=O)CN3CCCSc4ccccc43)CC2)cc1	24	9	4147	2	·	1.5	-7
Cc1ccc(CNC(=O)CSCc2ccc(F)cc2)cc1	-6	8	4187	-8	-7	-0.3	-19
Cc1ccc(OCC(=O)NCCN2CCOCC2)cc1C	8	-1	3504	-1	7	4.4	-12
COc1ccc(NC(=O)N2CCCC(c3nc(-c4ccc(C(C)C)cc4)no3)C2)cc1 (stereo not drawn)	5	10	11688	-21	3	0.3	-15
CCC(=O)NC(=S)Nc1cccc(-c2nc3ncccc3o2)c1	-9	-2	2087	5	-21	2.4	-37
COc1ccc(-c2cc3ccccc3n2CC(O)CN2CCCCC2)cc1 (stereo not drawn)	4	1	3557	-5	-3	-2.1	-17
Cc1ccc(OCCn2cnc3ccccc3c2=O)c([N+](=O)[O-])c1	3	-1	2731	10	-11	-1.6	-116
O=C(NN=Cc1ccc(O)cc1O)c1ccccc1NS(=O)(=O)c1cccs1	7	0	6557	13	·	-6.8	-4
COc1ccc2c(c1OC)C(=O)N(c1ccc3c(c1)CCC3)C2=O	4	10	10666	5	2	3.0	-12
COc1ccc(S(=O)(=O)N(CC(=O)NCc2ccncc2)c2ccc(C)cc2)cc1OC	16	6	4098	2	5	3.9	-23
CCc1ccc(OCC(=O)NNC(=S)NC(=O)C2CCCCC2)c(Br)c1	14	5	5495	4	-12	31	0
COc1ccc(N2C(=S)N(C(=O)c3ccccc3)C(=Nc3ccccc3)C2=Nc2ccccc2)cc1	-4	6	12887	2	-9	4.6	-85
Cc1cc(C)c(NC(=O)c2ccc3c(c2)C(=O)N(Cc2cccnc2)C3=O)c(C)c1	2	-4	4270	15	3	4.1	-22
CCCCNC(=S)NC(=O)c1ccc(Cl)cc1Cl	·	·	2717	53	3	1.7	-32
CCOC(=O)c1c(C)oc2ccc(OC(=O)N3CCOCC3)cc12	1	5	10948	-1	-3	-2.2	-8
CCOC(=O)CSc1nc(C(C)(C)C)nc2ccccc12	-10	-4	4265	10	6	0.5	8
CCOC(=O)C(NC(=O)Cc1ccccc1)(Nc1cc(C)on1)C(F)(F)F (stereo not drawn)	6	6	4198	4	1	4.3	-32
CN(C)Cc1ccc(F)cc1Sc1cc(Cl)ccc1Cl	9	4	2084	31	-15	6.7	-7
CCOC(=O)c1c(NC(=O)c2c(-c3ccccc3)noc2C)sc(C)c1-c1ccccc1	·	·	2607	3	35	-8.5	6
O=C(Cn1cnc2c(cnn2-c2ccc(Cl)cc2)c1=O)NC1CCCCC1	0	6	6174	-5	·	4.5	21
O=c1[nH]c(C2CC2)nc2sc3c(c12)CCCC3	1	-2	4102	1	2	7.0	-36
COc1cccc(N/C(=N/C(=S)Nc2ccc(C)cc2C)Nc2nc(C)cc(C)n2)c1	·	·	4708	·	-5	·	-1
CCN(CC)c1ccc(/C=N/NC(=O)C(O)c2ccccc2)cc1 (stereo not drawn)	·	·	4119	·	7	·	-6
C=CCN1C(=O)/C(=C/C=C2/N(CC)c3ccc(S(=O)(=O)N(C)C)cc3N2CC)SC1=S	22	5	5935	10	17	6.6	-10
CCOC(=O)C1CCCN(C(=O)Cn2c(=O)c3cccn3c3cccnc32)C1 (stereo not drawn)	12	3	6402	-1	-6	3.6	-12
CCOc1ccc(-n2c(SCC(=O)Nc3ccc4c(c3)OCO4)nc3ccccc3c2=O)cc1	·	·	3427	8	8	-2.8	16
COc1ccc(Cc2n[nH]c(=S)n2Cc2ccccc2)cc1Cl	12	8	4381	13	2	8.0	-9
CCCCC(=O)Nc1nnnn1CCC	-3	-6	2586	8	-2	-2.6	-30
CC(=O)N1N=C(c2ccco2)CC1c1cccs1 (stereo not drawn)	11	6	10366	7	-6	4.7	-27
CCOC(=O)C(C)Sc1nc(=O)n2cc(C)ccc2n1 (stereo not drawn)	5	-2	3851	8	6	1.9	-22
Nc1ncnc2c1ncn2[C@@H]1O[C@H](CNC(=O)[C@@H]2CCN2)[C@@H](O)[C@H]1O	-8	-2	3950	2	·	2.3	2
O=C(Nc1ccc(Cl)cc1)Nc1cc([N+](=O)[O-])ccc1F	2	0	2142	56	8	18	-20
c1cncc(C2OCC3(CO2)COC(c2cccnc2)OC3)c1 (stereo not drawn)	10	12	4247	6	·	3.8	-16
Cc1ccc2nc(-c3ccc(NC(=O)c4cccnc4)cc3)oc2c1	0	5	4477	-13	-1	-2.4	-85
O=C(NCC1CCCO1)c1ccc(COc2ccc(Br)cc2)cc1 (stereo not drawn)	3	3	2487	4	3	22	-17
O=C(CC1CCCCC1)NCc1ccccn1	·	·	9603	6	-4	4.0	-11
COc1ccc(CN(C)C(=O)Cc2ccc(OC)c(S(=O)(=O)N3CCOCC3)c2)cc1	-8	8	6037	0	1	0.5	-18
CCS(=O)(=O)Nc1cc(C(=O)OC)ccc1C(=O)OC	4	5	20318*	-27	-1	-0.9	-21
O=C1C=C(NCCOC23CC4CC(CC(C4)C2)C3)C2(CCCCC2)O1	16	5	4366	2	3	9.0	-33
Cc1occc1C(=O)NCc1ccccc1F	7	6	10360	3	3	2.6	-33
NC(=O)CSc1nnc(Cc2csc(Nc3ccc(F)cc3)n2)n1Cc1ccccc1	·	·	4553	0	1	-3.5	-22
COCc1ccc(C(=O)N2CCCC(N3CCN(c4ccccc4C)CC3)C2)s1 (stereo not drawn)	4	9	5551	6	6	5.1	-24
CCn1c(SCC(=O)Nc2ccc(C(C)=O)cc2)nc2nc3c(cc2c1=O)CCCC3	6	12	23239*	-9	-1	-3.0	-34
Cc1cc(C)c2cc(C#N)c(SCC(=O)NCC3CCCO3)nc2c1 (stereo not drawn)	2	5	2942	5	-3	-0.6	-23

Copied from the list.
Cc1cc(C)c2cc(C#N)c(SCC(=O)NCC3CCCO3)nc2c1 (stereo not drawn) in RN4220 kill → -0.6
Cc1ccc2nc(-c3ccc(NC(=O)c4cccnc4)cc3)oc2c1 in Autofluor counter → 4477

(continued)
SMILES	Mtb hypoxia inh	Mtb hypoxia inh growth	Autofluor counter	Sa ugtP lethal	BJeLR lethal	RN4220 kill	PrP UTR inh
N#Cc1ccc2ccn(CC(=O)NCc3ccccc3)c2c1	13	10	10009	7	4	2.1	-28
COc1ccc(CCNC(=O)CSc2ccsc2[N+](=O)[O-])c(OC)c1	-4	6	2368	0	6	1.0	-8
Cc1ccc2nc3c(cc(C(=O)NCc4ccco4)c(=N)n3Cc3ccco3)c(=O)n2c1	3	8	4712	-1	7	3.6	-20
CC(C)CCn1c(=O)c2ccccc2n2c(=S)[nH]nc12	-3	6	4944	10	-2	1.5	-14

One compound at a time, as listed above.
`Cc1c(N/C=C(\Cl)C(=O)C(F)(F)F)c(=O)n(-c2ccccc2)n1C` across the screens: Mtb hypoxia inh: 6; Mtb hypoxia inh growth: -6; Autofluor counter: 4407; Sa ugtP lethal: 29; BJeLR lethal: 2; RN4220 kill: -13; PrP UTR inh: -6
`CCn1c(SCC(=O)Nc2ccc(C(C)=O)cc2)nc2nc3c(cc2c1=O)CCCC3` across the screens: Mtb hypoxia inh: 6; Mtb hypoxia inh growth: 12; Autofluor counter: 23239*; Sa ugtP lethal: -9; BJeLR lethal: -1; RN4220 kill: -3.0; PrP UTR inh: -34

Screening data (PubChem BioAssay)
